# Assay outcomes as filed in PubChem.
# WNV protease inh = inhibitors of WNV NS2B-NS3 protease, primary screen, biochemical, fluorogenic substrate; Genome polyprotein (West Nile virus), P06935; fluorogenic substrate Ex360/Em465; active compounds read low; z-score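 (tested at a level between 10 and 100 µM)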; 65,000 compounds, 0.18% hits; AID 577, 2007;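 active = z-score at -3 or under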;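 note: score is relative to mean and spread of the compound wells of a plate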
# Target sequence (P06935 1371-1501 limits assumed): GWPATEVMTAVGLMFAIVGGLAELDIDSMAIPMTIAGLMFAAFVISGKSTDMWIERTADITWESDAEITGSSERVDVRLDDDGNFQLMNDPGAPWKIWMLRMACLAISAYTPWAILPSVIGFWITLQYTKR
# Target sequence (P06935 1502-1679 limits assumed): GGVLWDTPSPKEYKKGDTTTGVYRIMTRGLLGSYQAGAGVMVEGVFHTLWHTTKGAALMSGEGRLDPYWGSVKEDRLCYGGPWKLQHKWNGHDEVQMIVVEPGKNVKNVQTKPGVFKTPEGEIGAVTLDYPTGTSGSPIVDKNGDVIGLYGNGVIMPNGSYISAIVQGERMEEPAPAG
# * marks the source's active call; other numbers are inactive results. A portion of the library; count on the stated rates, not on these rows.
SMILES,WNV protease inh
CCOc1ccc(OCC)c(NC(=O)C2CCN(S(=O)(=O)c3cccc4nonc34)CC2)c1,-0.52
Cn1c2ccccc2c2cnn(CC(=O)N3CCN(c4ncccn4)CC3)c(=O)c21,-0.76
COc1ccc(CNC(=O)Cn2nc(-c3ccc4c(c3)OCCO4)ccc2=O)cc1,-1.07
CC1=C(C(=O)OC2CCCCC2)C(c2cccnc2)n2nnnc2N1 (stereo not given),-0.1
CC1c2nc3ccccc3n2C(CC(=O)NCc2ccccn2)C(=O)N1Cc1ccccc1 (stereo not given),-0.44
COc1ccc(-c2c(C#N)c(SCc3c(C)noc3C)nc3c2C(=O)CC(C)(C)C3)cc1,-0.65
O=C1Nc2ccc(S(=O)(=O)NCCC3=CCCCC3)c3cccc1c23,0.51
CN(CCNC(=O)CN1CCN(Cc2ccccc2Cl)C1=O)Cc1ccccc1,2.35
O=C(NCCN1C(=O)CSC1=O)C1CC(=O)N(c2ccccc2)C1 (stereo not given),-1.34
Cc1cc(SCC(=O)N2CCC(c3noc4ccc(F)cc34)CC2)nc2ccccc12,0.44
COc1ccccc1NC(=O)N(C1CCCC1)C1CCN(C(C)=O)CC1,1.02
CCn1nnnc1NCc1ccc(N2CCCC2)cc1,0.45
COC(=O)c1nnn(CC(=O)Nc2cc(Cl)ccc2C)c1C(=O)OC,-0.31
c1nc(N2CCCCCC2)c2[nH]cnc2n1,1.76
COc1cccc(OC)c1-c1nn2c(-c3cc(-c4ccccc4)n[nH]3)nnc2s1,-1.65
COc1ccccc1N1CCN(C(=O)c2cccc(N3C(=O)NC4CC3(C)Oc3ccccc34)c2)CC1 (stereo not given),0.32
CC1(C)CC(=O)c2c(-c3cccnc3)n[nH]c2C1,-0.92
CN(CCNC(=O)c1cccc(N2CCCC2=O)c1)Cc1ccccc1,1.43
CCN(CC)C(=O)C(C)OC(=O)c1ccc(O)cc1 (stereo not given),-0.77
CCCn1nnc(NC(=O)c2cc(Br)ccc2OC)n1,-0.8
O=C(O)c1ccc2c(c1)N(Cc1ccccc1)C(=O)c1ccccc1S2=O (stereo not given),-0.41
OCCSc1nc(-c2cccnc2)nc2ccccc12,0.52
Cc1nc(CN2CCN(C(=O)c3ccc(Br)cc3)CC2)cs1,0.22
COc1cc(C(=O)NCc2nnc(SCC(=O)N3CCCCC3)o2)cc(OC)c1OC,0.15
Cc1[nH]c(=O)[nH]c(=O)c1S(=O)(=O)N1CCCC1,0.94
# Continued.
SMILES,WNV protease inh
O=C1CC(Nc2ccccc2)C(=O)N1c1ccc(N2CCOCC2)cc1 (stereo not given),-1.01
COc1ccccc1N1CCN(C(CNS(=O)(=O)c2ccccc2)c2cccnc2)CC1 (stereo not given),-0.12
Cc1c(C(=O)NC2CCCc3ccccc32)oc2ccc(S(=O)(=O)N3CCOCC3)cc12 (stereo not given),-0.55
CCOc1cccc(-c2nnc3n2N=C(c2cc(OC)ccc2OC)CS3)c1,-0.13
CCOC(=O)c1ccc(OCc2nc(-c3cccs3)no2)cc1,-1.27
Cc1nn(C(=O)N2CCCCC2)c(C)c1CN1C(=O)c2ccccc2C1=O,0.78
CCN1C(=O)C(NC(C)=O)c2cc(Br)ccc21 (stereo not given),-0.42
COCCN1C(=O)c2oc3ccccc3c(=O)c2C1c1ccc(O)c(OC)c1 (stereo not given),-0.01
CCOC(=O)N1CCC(NC(=O)c2ccc3c(c2)sc2nc(-c4ccc(OC)cc4)cn23)CC1,0.11
Cc1oc2c(O)c(O)ccc2c(=O)c1-c1cnn(-c2ccccc2)c1,-0.03
COc1ccc(C2C(C(C)=O)=C(C)N=c3s/c(=C/c4ccc5c(c4)OCO5)c(=O)n32)cc1 (stereo not given),-0.67
COc1ccc(OC)c(NC(=O)c2cn(C)c(=O)c3cc(OC)c(OC)cc23)c1,0.77
CCCCn1c2c(c3ccccc31)CCc1nonc1-2,0.48
Cc1ccccc1NC(=O)C1CCC(C)(C(=O)O)C1(C)C (stereo not given),-0.08
COc1ccc(N(C)C(=O)CCS(=O)(=O)c2cccc3nonc23)cc1,-0.07
COc1ccc(CNc2ccc3cn[nH]c3c2)c(OC)c1OC,-0.81
Cn1cc(S(=O)(=O)Nc2ccc(Br)cc2F)c(=O)n(C)c1=O,1.21
COc1ccc(-c2noc(CCC(=O)N3CCN(c4cc(C)ccc4C)CC3)n2)cc1,0.55
O=C(CCN1CCc2ccccc2C1)Nc1ccccc1F,-0.24
Cn1c2ccccc2c2c(C(=O)NCc3ccco3)cn(C3CCCCC3)c(=O)c21,2.19
COc1cc(C)nc(Oc2ccc(OCc3ccccc3)nn2)n1,-1.5
COC(=O)C1=C(C)NC(C)=C(C(=O)OC)C1c1cn(-c2ccccc2)nc1-c1ccco1,-0.43
O=C(CSCc1cnn(-c2ccccc2)c1-n1cccc1)NCCN1CCOCC1,0.09
COC(=O)c1ccccc1NC(=O)Cn1cnc2ccc(S(=O)(=O)N3CCC(C)CC3)cc2c1=O,0.81
Cc1ccc(C2CC(=O)NC(SCC(=O)OCc3ccccc3)=C2C#N)o1 (stereo not given),2.2

# Individual results from above:
# Value of `CCN(CC)C(=O)C(C)OC(=O)c1ccc(O)cc1` (stereo not given) in WNV protease inh: -0.77
# Value of `O=C(O)c1ccc2c(c1)N(Cc1ccccc1)C(=O)c1ccccc1S2=O` (stereo not given) in WNV protease inh: -0.41
# Value of `COc1ccc(-c2noc(CCC(=O)N3CCN(c4cc(C)ccc4C)CC3)n2)cc1` in WNV protease inh: 0.55
# Value of `OCCSc1nc(-c2cccnc2)nc2ccccc12` in WNV protease inh: 0.52
# Value of `CC1c2nc3ccccc3n2C(CC(=O)NCc2ccccn2)C(=O)N1Cc1ccccc1` (stereo not given) in WNV protease inh: -0.44
# Value of `CCOC(=O)N1CCC(NC(=O)c2ccc3c(c2)sc2nc(-c4ccc(OC)cc4)cn23)CC1` in WNV protease inh: 0.11

# Remaining list, next part
SMILES,WNV protease inh
CCOc1ccc2nc(N3CCCC(C(=O)N4CCN(CC)CC4)C3)sc2c1 (stereo not given),0.95
O=C(Nc1ccc(Cl)cc1C(=O)O)c1ccc2c(c1)C(=O)N(Cc1ccco1)C2=O,-0.15
O=C(NCCN1CCOCC1)c1ccc2c(c1)N(Cc1ccccc1F)C(=O)CS2,-0.18
O=C1NC(=O)C(CC(=O)N(Cc2ccco2)C2(C(=O)NC3CCCC3)CCCCC2)N1 (stereo not given),-0.44
CCn1c(Cc2c(C)[nH]c3ccccc23)nnc1SCC(N)=O,-1.45
COc1ccc(CNC(=O)Cn2cnc3c(=O)n(C)c(=O)n(C)c32)cc1,-0.58
CS(=O)(=O)Nc1ccc(OCc2ccccc2)cc1,-0.58
COc1ccc(-c2cc(C(=O)Nc3cccc(C(C)=O)c3)no2)cc1,1.29
Cc1ccccc1NC(=O)CSc1nc(N)c(C#N)cc1C#N,-1.63
CS(=O)(=O)N(Cc1ccccc1)c1ccccc1C(=O)O,-1.34
COc1ccc(S(=O)(=O)N2CCN(CCO)CC2)cc1-c1nnc2c3ccccc3c(C)nn12,0.8
CCN(CC)CCNC(=O)C1c2ccccc2C(=O)N(C)C1c1cn(C)c2ccccc12 (stereo not given),-0.62
CCOC(=O)N1CCN(CCC(=O)Nc2ccc(C)cc2)CC1,-0.97
CCCOc1cccc(CN2CCCCC2c2cccnc2)c1 (stereo not given),-0.6
CN(C)c1ccc(NC(=O)c2ccc(COc3cccc(Cl)c3)o2)cc1,-1.19
NC(=O)CC12CC3CC(C1)CC(CC(N)=O)(C3)C2,-0.96
COC(=O)C1(S(=O)(=O)c2ccc(C)cc2)CCOCC1,0.11
CCCNC(=O)c1[nH]c(C)c(C(C)=O)c1C,0.17
O=C(NCC(=O)N(c1cccnc1)C(C(=O)NC1CCCC1)c1ccco1)c1cccs1 (stereo not given),-1.97
CC(=O)Nc1cc(OC(=O)c2ccco2)cc(OC(=O)c2ccco2)c1,0.17
CCOC(=O)NC(CC(=O)O)c1ccc(OCC)cc1 (stereo not given),1.79
COC(=O)c1ccc(COc2ncnc3c(Cl)cc(Cl)cc23)o1,-0.65
CCN(CC)CCOC(=O)c1ccc(NC(=O)CCNC(=O)Cn2ccc3ccccc3c2=O)cc1,0.63
c1cncc(C(c2nnnn2C2CCCC2)N2CCCC2)c1 (stereo not given),0.79
COCCSc1ccccc1C(=O)Nc1nccs1,0.6

# At a glance, some entries already given.
SMILES,WNV protease inh
CCOc1ccc2nc(N3CCCC(C(=O)N4CCN(CC)CC4)C3)sc2c1 (stereo not given),0.95
O=C(Nc1ccc(Cl)cc1C(=O)O)c1ccc2c(c1)C(=O)N(Cc1ccco1)C2=O,-0.15
O=C(NCCN1CCOCC1)c1ccc2c(c1)N(Cc1ccccc1F)C(=O)CS2,-0.18
O=C1NC(=O)C(CC(=O)N(Cc2ccco2)C2(C(=O)NC3CCCC3)CCCCC2)N1 (stereo not given),-0.44

# (further entries)
SMILES,WNV protease inh
CC(=O)N1C(c2ccccc2)CC(=O)OC1c1ccc2c(c1)OCO2 (stereo not given),-0.22
O=S(=O)(Cc1ccccc1)NCc1cccnc1,-1.21
Cc1ccccc1-c1nc(Cc2ccc(Cl)cc2)no1,-0.8
CN(c1ccc(C(=O)NCc2ccccc2)cc1)S(C)(=O)=O,-0.7
O=C(O)c1cc(O)c2c(c1)C(=O)c1cccc(O)c1C2=O,-0.87
CCC(=O)NCCN1CCN(C(=O)CC)CC1,-0.26
CCOc1ccc(C(=O)Nc2ccc(NC(=O)c3ccco3)c(Cl)c2)cc1Br,0.09
CCC(=O)Nc1cccc(-c2cn3ccsc3n2)c1,-0.75
COc1cc(S(=O)(=O)N2CCCCC2)ccc1NC=O,-0.57
Cn1c(=O)cc(OCC(=O)Nc2ccccn2)c2ccccc21,-0.16
O=C(Nc1cccc(Cl)c1Cl)c1ccncc1,-0.19
O=C(CN1C(=O)c2ccccc2C1=O)Nc1nnc(C2CCCO2)s1 (stereo not given),-0.14
CC(C)CCNC(=O)[C@H](CC(C)C)NC(=O)[C@H]1O[C@@H]1C(=O)O,0.000315
Cc1ccc(S(=O)(=O)NCCSc2nnnn2-c2ccc(C(N)=O)cc2)cc1,-1.41
Cn1c(NC(=O)c2cc(Cl)ccc2Cl)cc(=O)n(C)c1=O,-0.68
Cc1ccc(S(=O)(=O)N2CCN(C(=O)CCC(=O)NC3CCCc4ccccc43)CC2)cc1 (stereo not given),-1.12
Cn1cccc1Cc1nnc(SCC(=O)NCc2ccc(F)cc2)n1-c1ccc(F)cc1,0.96
COc1ccc(Cl)cc1NC(=O)CSc1nnc(COc2ccccc2)n1N,0.07
Cc1cccc(-n2c(CCN3C(=O)c4ccccc4C3=O)nc3ccccc3c2=O)n1,-0.12
CSc1ccccc1NC(=O)c1cccs1,2.05
O=C(CSc1nnc(CNC(=O)c2ccccc2F)o1)Nc1ccc2c(c1)OCCO2,1.31
COc1ccc(Cl)cc1NS(=O)(=O)c1cc(Cl)ccc1OC,-1.33
COC(=O)Cn1cnc2c(nnn2-c2cccc(Cl)c2)c1=O,-0.21
CCOC(=O)C1=C(C)NC2(O)c3ccccc3C(=O)C12O (stereo not given),-0.82
CCOC(=O)N1CCN(C(=O)c2ccc3c(=O)n(CCc4ccccc4)c(=O)[nH]c3c2)CC1,1.07
# Additional records follow.
SMILES,WNV protease inh
COC(=O)c1ccc2c(c1)NC1=C(C(=O)CC(C)(C)C1)C(c1ccncc1)N2 (stereo not given),1.04
CSc1ccc(S(=O)(=O)N2CCN(Cc3ccc4c(c3)OCO4)CC2)cc1,-0.88
Cc1nnc(NC(=O)C2C3C=CC(O3)C2C(=O)O)s1 (stereo not given),1.85
Cc1nc2nc(Cc3ccccc3)[nH]n2c(=O)c1Cl,-1.16
CCOC(=O)CSc1nc2sc3c(c2c(=O)n1CC)CC(C)(C)OC3,-0.16
CCc1nnc(NC(=O)c2ccc(S(=O)(=O)N(CCOC)CCOC)cc2)s1,0.27
COc1ccc(S(=O)(=O)Cc2ccc(C(=O)N3CCN(c4ccccc4)CC3)o2)cc1,0.83
COc1ccc(N2CCN(C(c3cc(OC)ccc3OC)c3nnnn3Cc3ccco3)CC2)cc1 (stereo not given),-1.08
O/N=C1/CCCSc2ccccc21,0.47
CCOC(=O)c1cc(NC(=O)Nc2ccc(OC)c(OC)c2)c(C)nc1C,-1.41
Cn1c2ccccc2c2c(C(=O)NCCCN3CCCC3=O)cn(C3CCCCC3)c(=O)c21,-0.68
CCCCn1c2nc3ccccc3nc2c2c(=N)oc(C)nc21,0.46
O=S(=O)(NCCSc1ccccc1)c1ccc2c(c1)OCCO2,-0.15
CCOC(=O)CN1CC23C=CC(O2)C(C(=O)Nc2ccc(F)c(C)c2)C3C1=O (stereo not given),0.66
O=C(CCCc1ccccc1)N1CCc2ccccc21,-0.68
COC(=O)C1=C(C)n2nnnc2NC1c1cc2ccccc2o1 (stereo not given),-0.17
COc1ccc(Cl)cc1NC(=O)C1CCCN(S(=O)(=O)c2cccc3nonc23)C1 (stereo not given),-0.64
Cn1c(=O)[nH]c(=O)c2c1nc(N(CCO)Cc1ccccc1)n2CCCc1ccccc1,-0.31
COc1ccccc1-n1c(CNC(=O)c2ccc(S(=O)(=O)N3CCOCC3)cc2)n[nH]c1=S,0.23
CC1(C)CC(=O)C(C=NCCN2CCNC2=O)=C(O)C1,-0.03
CCOC(=O)N1CCC(NC(=O)c2sc3nc4n(c(=O)c3c2C)CCCC4)CC1,-0.87
CCOC(=O)CN1CC23C=CC(O2)C(C(=O)NC2CCCCC2)C3C1=O (stereo not given),-1.38
COC(=O)c1nnn(CC(=O)Nc2cccc(OC)c2)c1C(=O)OC,-0.32
CCOc1cc(N2CCOCC2)c(OCC)cc1NC(=O)Cc1ccc(OC)c(OC)c1,0.46
CC1CCN(c2c(NCc3ccc(C(=O)N4c5ccccc5CC4C)cc3)c(=O)c2=O)CC1 (stereo not given),-0.06
# Following part
SMILES,WNV protease inh
Cn1cc(S(=O)(=O)NCc2ccco2)c(=O)n(C)c1=O,0.26
CCc1ccc(NC(=O)CSc2nnc(CNC(=O)c3c(F)cccc3Cl)o2)cc1,1.23
CN1CCN(c2ccc(NC(=O)COc3ccccc3Cl)cc2)CC1,0.66
CCOC(=O)c1ccc(NC(=O)C2=C(C)Nc3nc(CCCO)nn3C2c2cccc(C)c2)cc1 (stereo not given),-0.18
Nc1ccc2cn[nH]c2c1,0.3
Cc1nnc(Sc2nc3c(c(=O)[nH]c(=O)n3C)n2Cc2ccccc2)s1,-0.13
COc1cc2ccccc2cc1C(=O)Nc1ccc(S(=O)(=O)Nc2cc(C)on2)cc1,0.38
